Menin MLL FP FL: displaces fluorescein MLL peptide from human menin. Fluorescence polarization, fluorescein-MLL peptide displacement from menin. FP activity change, % at 61.4 µM. 290,000 tested, under 10 active; inconclusive = falling polarisation curve, or a change in total fluorescence; inactive = total fluorescence flat and polarisation flat or rising; no compound was filed as active; the % refers to the polarisation; negative = inhibition;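 further: % of control where 0% means no effect; inhibitors lower the polarisation; unlabelled MLL peptide was the positive control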
ClpP mod: qHTS Assay for Activators of ClpP; purified B. subtilis ClpP, FRET peptide cleavage, 20 min; Potency, µM (titrated, usually from 57.5 µM), for the others: at the top dose activity change, negative = active; 1.9% of 340,000 active; AID 651965, 2013; active = well fitted falling curve with a large enough effect; inconclusive = small, poorly fitted or top-dose-only effect; inactive = no such curve, though single readings can be large or run the other way; further: potency means the concentration at half of the fitted maximal effect; the source files actives as falling curves though it sought activators and does not explain the sign; nearly all actives have a fitted effect of over 65% in size; many hits overshoot -100%
Target sequence (P80244 whole entry, looked up): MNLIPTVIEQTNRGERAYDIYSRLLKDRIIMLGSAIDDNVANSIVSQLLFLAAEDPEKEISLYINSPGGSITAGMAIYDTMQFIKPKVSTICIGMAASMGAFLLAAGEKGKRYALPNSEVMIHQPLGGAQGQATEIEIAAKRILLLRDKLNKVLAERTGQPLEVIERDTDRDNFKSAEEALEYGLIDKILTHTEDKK
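FRET quenching reversal measured ClpP activation: 10 microg/mL B. subtilis ClpP at pH 8 with the FRET-FV decapeptide, read at 430 nm after 320 nm excitation. The 20-min minus 0-min signal was scaled between DMSO/no-enzyme wells and ADEP (5.8 microM final).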
TRPV1 potentiator: enhances activation of the human vanilloid receptor TRPV1; Q8NER1; AID 540277; 0.02% of 320,000 active; TRPV1-expressing cells, Fluo-8 calcium influx, capsaicin EC20 potentiation; host cell line not named in the record; control for the full effect not named in the record; potentiation, % at 8.33 µM; active means potentiation above 80%; inconclusive means 30% to 80%; inactive means below 30%; further: 0% is about no effect
Target sequence (Q8NER1 whole entry, looked up): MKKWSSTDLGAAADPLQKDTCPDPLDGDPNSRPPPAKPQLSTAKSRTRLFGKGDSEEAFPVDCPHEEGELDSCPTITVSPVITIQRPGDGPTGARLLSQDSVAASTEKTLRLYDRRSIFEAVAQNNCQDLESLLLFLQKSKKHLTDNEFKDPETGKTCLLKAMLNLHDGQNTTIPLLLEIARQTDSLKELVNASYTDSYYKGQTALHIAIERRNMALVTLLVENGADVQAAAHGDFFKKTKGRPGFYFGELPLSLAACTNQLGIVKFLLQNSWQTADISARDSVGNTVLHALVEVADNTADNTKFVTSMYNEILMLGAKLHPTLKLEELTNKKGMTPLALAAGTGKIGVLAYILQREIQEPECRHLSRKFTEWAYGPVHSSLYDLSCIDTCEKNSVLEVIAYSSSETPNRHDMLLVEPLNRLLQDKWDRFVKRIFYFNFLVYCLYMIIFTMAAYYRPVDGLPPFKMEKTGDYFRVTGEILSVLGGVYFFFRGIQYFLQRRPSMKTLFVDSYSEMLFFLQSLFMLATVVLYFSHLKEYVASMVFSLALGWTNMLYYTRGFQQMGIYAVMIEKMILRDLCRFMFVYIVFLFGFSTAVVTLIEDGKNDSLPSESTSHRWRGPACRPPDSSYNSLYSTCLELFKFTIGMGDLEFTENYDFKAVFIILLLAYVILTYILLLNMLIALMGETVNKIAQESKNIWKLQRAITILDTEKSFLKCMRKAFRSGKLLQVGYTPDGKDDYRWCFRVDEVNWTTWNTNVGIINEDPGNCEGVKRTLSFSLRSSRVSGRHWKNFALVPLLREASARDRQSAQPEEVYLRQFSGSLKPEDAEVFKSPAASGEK
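Fluo-8 calcium influx in TRPV1-expressing cells, kinetic read (ex 480/em 520 nm). Compound added and read 3 min for agonist activity, followed by capsaicin at EC20 final and 2 min further read for enhancement.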
TRPML1 agonist: human mucolipin-1 channel agonism. Q9GZU1. TRPML1-expressing cells, Ca2+ dye fluorescence, FDSS; host cell line not named in the record; reference of the full effect not given here. activation, % (test concentration not listed). 0.12% of 410,000 active. AID 624414; in the data active = activation above about 50%; inconclusive = about 30% to 50%; inactive = below about 30%; further: 0% is about no effect; the text of the record puts the active cut at 80%
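TRPML1-DL cells, Tet-induced overnight (~16 h, 37 degrees C), loaded 45-90 min at room temperature with Ca8 no-wash calcium dye plus quencher. FDSS fluorescence: 10 s baseline, compound pin-transfer, 110 s agonist read, then EC80 54-4 (4uM final) and 110 s antagonist read.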
TRPML1 inh: inhibitors of human TRPML1 channel; Q9GZU1; TRPML1-inducible cells, Ca2+ dye fluorescence, FDSS; stronger effect = lower value; inhibition of EC80 agonist-evoked calcium signal; activity change, negative = inhibition, % (no concentration beside the values); 0.02% of 390,000 active; in the data active means activity change below about -50%; inconclusive means about -30% to -50%; inactive means above about -30%;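 further: stimulus is agonist 54-4 at its EC80 concentration; on the % scale 0 is the no-effect control and ±100 the full control effect; compound concentration not given in the record; the text of the record puts the active cut at -80%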
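TRPML1-DL cells, Tet-induced overnight (~16 h, 37 °C) at 1,500 cells/well, were loaded with Ca8 no-wash dye plus quencher for 45-90 min at room temperature. Compounds were pinned during FDSS kinetic reading; agonist 54-4 at EC80 (4 uM final) then added.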
Sfp inh: blocks B. subtilis Sfp PPTase activity. Q9F4F7. 3.5% of 310,000 active. Potency, µM, without a hit: max response, negative = inhibition, usual class: inhibitors. Biochemical Sfp PPTase activity, qHTS; active means well fitted inhibition curve with a large enough effect; inconclusive means small, poorly fitted or top-dose-only effect, or another doubt; inactive means no such curve, though single readings can be large or run the other way;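 further: the enzyme is Sfp with the accession as filed and its product quenches rhodamine fluorescence; potency means the concentration at half of the fitted maximal effect; 0% = enzyme reaction without inhibitor and -100% = no enzyme wells; top concentration of the series not given in the record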
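After 15 min at room temperature with compound, 15 nM Sfp received 5 uM rhodamine-CoA plus 12.5 uM BHQ-2-ybbR (50 mM Hepes pH 7.6, 10 mM MgCl2). Rate came from the fluorescence difference over 30 min, ex 525/em 598 nm.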
PINK1 expr mod: PINK1 expression modulation | PINK1 immunofluorescence, high-content cytometry, 24 h | Potency, µM (highest dose often 76.6 µM), for the others: at the top dose activation (PINK1 increase), hits mostly activators | 0.2% of 410,000 active; active = well fitted activation curve with a large enough effect; inconclusive = small, poorly fitted or top-dose-only effect; inactive = flat fitted curve, though single readings scatter; cell line not stated here;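 further: potency means the concentration at half of the fitted maximal effect; % of control where 0% means no effect; nearly all actives have a fitted effect of over 65% in size; a mitochondrial uncoupler was the plate control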
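PINK1 protein level read as immunofluorescence by microplate cytometer in a fixed, stained stable cell line after 24 h exposure to five compound concentrations, with CCCP as control.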
Active calls of the source: *; u = inconclusive; x = not tested or not shown; & = joins results of further samples; [ ] = another dose, or the depositor's remark.

SMILES | Menin MLL FP FL | ClpP mod | TRPV1 potentiator | TRPML1 agonist | TRPML1 inh | Sfp inh | PINK1 expr mod
Cc1n[nH]c(=O)n1-c1ccc(C(C)(C)C)cc1 | 5.7 | x | 2 | 0.3 | 7 | 21% | -0.5%
Cc1cc(Cl)ccc1NC(=O)COC(=O)c1cc([N+](=O)[O-])ccc1N1CCOCC1 | x | -4.0% | 5 | -0.5 | 17 | x | -1.1%
CCN(C(=O)CSc1nnc(Cn2nnc3ccccc32)o1)c1nc(-c2ccccc2)cs1 | 4.7 | -0.7% | 1 | 0.4 | -3 | 17% | 2.2%
O=c1[nH]c2ccccc2n1C1CCN(CCOc2ccccc2)CC1 | x | 1.5% | x | -0.5 | 2 | x | -0.9%
O=C(COC(=O)c1ccco1)Nc1cccc(S(=O)(=O)N2CCCCC2)c1 | x | -1.3% | x | -1.7 | -22 | x | 0.5%
COc1ccc(NC(=O)CN(C)C(=O)c2ccccc2SCC(=O)N2CCCC2)cc1 | x | 1.5% | -2 | 0.1 | -2 | x | 0.4%
CC(C)Oc1ccc(CNC(=O)c2cnc3sc(N4CCCCC4)nn3c2=O)cc1 | x | -15% | x | -0.5 | -17 | x | -0.4%
O=C(CCCNS(=O)(=O)c1cccc2nsnc12)N1CCCCC1 | -5.0 | 0.2% | 14 | 0.1 | -25 | -2% | 0.4%
CC(C)C[C@H]1CNC(=O)C(=O)N1C[C@H](C)NC(=O)Cc1ccccc1 | -1.6 | 4.5% | -3 | 0.3 | -13 | 20% | 1.6%
Cc1ccc(S(=O)(=O)N2CCC(C(=O)N3CC(C)OC(C)C3)CC2)cc1 (configuration not stated) | x | -2.8% | 9 | 0.0 | 5 | 9% | -1.0%
CCC(CC)c1nnc(NC(=O)C2COc3ccccc3O2)s1 (configuration not stated) | -1.4 | 0.3% | -1 | -0.7 | 10 | 19% | 9.4%[38.3 µM]
COc1cc(N)ccc1Cc1ccc(N)cc1OC | -0.6 | -1.2% | 30 | -0.4 | -9 | 10% | 0.6%
COc1ccccc1S(=O)Cc1ccc(C(=O)NCCc2ccc(Cl)cc2)o1 (configuration not stated) | -2.2 | 0.3% | -2 | 0.5 | -1 | -7% | 5.0%
Fc1cccc(Cl)c1COc1ccc(-c2nnco2)cc1 | x | x | -1 | 2.0 | -15 | -7% | -2.8%
COc1ccc(C2CC(c3ccccc3OC(C)=O)=NN2C(=O)/C=C/c2ccccc2)cc1 (configuration not stated) | 2.2 | -10% | 22 | 0.4 | 6 | 4% | 3.5%
COCCNC(=O)C1CCCN(Cc2ccc(C#N)cc2)CC1 (configuration not stated) | x | 0.9% | x | -0.3 | x | x | 1.2%
CCS(=O)(=O)NCc1ccc2[nH]c3c(c2c1)CCCC3 | u | x | 5 | x | x | -3% | x
Cc1cccc(-n2nc3c(c2NC(=O)c2ccc(Br)o2)CSC3)c1C | -1.6 | -1.3% | -14 | 1.1 | -6 | u | 4.9%[38.3 µM]
Cc1noc(C)c1S(=O)(=O)Nc1cc(C(F)(F)F)ccc1N1CCOCC1 | 4.0 | -3.0% | -6 | 0.5 | u | 9% | 0.1%
Cc1cccc(C)c1N=C1C(=O)Nc2ccccc21 | 0.8 | 2.3% | 24 | x | x | 5% | -0.2%
CCOC(=O)C1C(C(=O)Nc2cccc(C(F)(F)F)c2)C1C(=O)NC(C)C (configuration not stated) | 4.1 | x | 23 | 0.2 | -7 | 10% | -1.7%
Cc1nn(Cc2c(F)c(F)c(F)c(F)c2F)c(C)c1NC(=O)c1ccnn1C | x | -2.9% | -2 | 1.4 | 2 | 0% | 0.6%
COc1ccc(OC)c(N/C(C)=C/C(=O)c2ccncc2)c1 | -1.9 | 1.0% | 25 | 1.6 | -4 | 2% | 5.0%
O=C(Nc1ccc(S(=O)(=O)N2CCOCC2)cc1)c1ccc(F)cc1 | 2.0 | x | -13 | -0.6 | -16 | -1% | 2.0%
CSc1nn2c(C(F)(F)F)cc(C(F)(F)F)nc2c1C(N)=O | 2.5 | 1.0% | -19 | 4.3 | 1 | 13% | 1.1%
Cn1c2ccccc2c(=O)c2c(=O)n(Cc3ccco3)c(-c3ccc(C(C)(C)C)cc3)nc21 | 0.4 | x | 12 | x | x | -7% | x
O=C(Nc1ccc(Cl)cc1)C1CCN(c2nc3ccccc3nc2C(F)(F)F)CC1 | x | 6.5% | x | -0.4 | -16 | x | 0.8%
CN1CCc2c(sc(NC(=O)c3ccco3)c2C(N)=O)C1 | -5.8 | -5.2% | 4 | 4.0 | 20 | -3% | 6.0%
COc1ccc(C)cc1NC(=O)Cc1c(C(=O)O)c(C)cn1C | x | -3.5% | x | 0.0 | 17 | x | 0.1%
CC1(C(=O)NCc2cccc(Cl)c2)Cc2c(-c3ccc4c(c3)OCO4)ccnc2O1 (configuration not stated) | x | 3.8% | x | -0.5 | x | x | 3.6%
COc1cccc(-c2cnc(C(O)c3c(C)ccc4ccccc34)[nH]2)c1 (configuration not stated) | x | -0.9% | x | 0.3 | x | x | 1.2%
Cn1nnc2cc(C(=O)NCc3ccco3)ccc21 | 0.9 | -1.1% | -7 | -1.0 | 9 | -23% | 0.9%
CC[n+]1c(/C=C(\C)SC)sc2ccccc21 | 5.7 | -2.7% | x | -0.2 | 7 | 79µM* | 4.5%[38.3 µM]
COc1cc([N+](=O)[O-])ccc1NC(=O)Nc1cnccn1 | 0.7 | 1.4% | -3 | -0.5 | -4 | 10% | -0.3%
COC(=O)[C@H]1C[C@H](OC(=O)Nc2c(C)noc2C)[C@@]2(O)CN(S(=O)(=O)c3ccc(C)cc3)CC2[C@H]1C(=O)OC (some centres not stated) | x | 0.7% | x | -0.5 | 8 | x | 0.6%
COc1ccc(NC(=O)CSc2c3c(nc4ccccc24)CCCC3)c(OC)c1 | 5.4 | -2.5% | -4 | 1.4 | -11 | -2% | -5.7%
CC(C)CNC(=O)c1ccc(-c2ccc(F)c(F)c2)c2ccoc12 | x | u | x | 1.2 | x | x | 1.0%
CCN(CC(=O)NCc1ccc(Cl)cc1)C(=O)CCOc1ccccc1C | x | -1.7% | -2 | 0.9 | -10 | x | -1.5%
CC(OC(=O)/C=C/c1ccccc1)C(=O)Nc1cccc(C#N)c1 (configuration not stated) | x | 0.8% | 10 | -0.2 | 3 | x | 6.7%
Cc1ccc(NC(=O)c2ccccc2F)nc1 | 1.3 | 16µM* | u | -0.5 | 1 | 12% | 1.9%
COc1ccc(CCNC(=O)c2c[nH]n3c(=O)c(Cc4ccccc4Cl)c(C)nc23)cc1OC | x | 4.2% | x | 0.6 | 13 | x | 0.7%
NC(=O)N/N=C/c1ccc(-n2nncc2-c2ccc(Cl)cc2)cc1 | -2.1 | x | 24 | 1.8 | -2 | 0% | -0.3%
Cc1ccc(S(=O)(=O)N2CCN(S(C)(=O)=O)C2c2ccccc2)cc1 (configuration not stated) | 4.4 | -1.7% | 2 | 0.5 | u | 6% | 2.6%
COc1cc(OC)nc(Oc2ccccc2C(=O)Oc2ccccc2Cl)n1 | -1.0 | -1.4% | -7 | 0.8 | -11 | -11% | x
Cc1cc(C)c(S(=O)(=O)C(C)C)c(=O)[nH]1 | -2.8 | x | -3 | 1.3 | -2 | 20% | 0.9%
COc1ccc(-n2c(=O)c3ccccc3n(Cc3ccccc3F)c2=O)cc1OC | 0.0 | -2.7% | 9 | 0.9 | 9 | -3% | 1.8%
CCCCNCC(=O)Nc1sc(C)c(C)c1C(=O)OCC | 1.0 | -4.7% | -10 | 2.3 | 3 | 6% | -2.0%[38.3 µM]
O=C(CN1CCN(c2cccc(C(F)(F)F)c2)CC1)Nc1cccc(C(F)(F)F)c1 | -1.0 | -3.2% | -8 | 2.0 | -12 | u | 0.7%
CCC1Oc2ccc(Cl)cc2N(CC(=O)O)C1=O (configuration not stated) | 3.4 | 0.7% | 8 | 0.0 | -5 | 7% | u
Oc1ccc(Nc2nc3ccccc3n3cnnc23)cc1 | x | 1.4% | x | -1.0 | -25 | x | -0.1%
COC(=O)CNC(=O)C1Cc2ccccc2CN1S(=O)(=O)c1ccc(F)cc1 (configuration not stated) | -1.3 | -0.1% | 5 | 1.7 | -1 | 8% | 1.0%
COc1ccccc1Nc1nn2c(=O)c3ccc(C(=O)N4CCCC(C)C4)cc3nc2s1 (configuration not stated) | -2.2 | 1.3%&-0.1% | 10 | -1.1&0.4 | -2&21 | 3% | 3.9%&5.9%
CCC(CO)Nc1ncnc2c1cnn2-c1ccc(OC)cc1 (configuration not stated) | 4.6 | -16% | -2 | 0.2 | 8 | 14% | 1.3%
CN(C)c1ccc(-c2nccc(NCc3ccccc3)n2)cc1 | 2.2 | x | x | x | x | -14% | 0.6%
O=C1CC(C(=O)NCCc2ccccc2)SC(=Nc2ccccc2)N1 (configuration not stated) | 4.3 | -0.6% | 13 | -0.5 | -12 | 16% | -3.2%
NC(=O)c1c(NC(=O)c2cccs2)sc2c1CCCCCC2 | 1.1 | -9.9% | -28 | -0.3 | 18 | u | -0.7%[38.3 µM]
CC1=C(C(=O)N(C(C)C)C(C)C)CC(CC(=O)NCCCCc2ccccc2)C(=O)N1Cc1ccc(F)cc1 (configuration not stated) | x | 0.5% | x | -0.8 | x | x | u
Cc1ccc(C)c(NC(=O)N2CC=C(c3c[nH]c4ccccc34)CC2)c1 | x | -20% | x | -0.2 | 16 | x | -0.3%
Cc1ccc(C(C(=O)NC2CCCCC2)N2CCOCC2)cc1 (configuration not stated) | 4.1 | 0.4% | -9 | 0.4 | 3 | 14% | 0.4%
Cc1cc(C(=O)CSc2nnc(-c3ccc4c(c3)OCO4)o2)c(C)n1-c1ccc(F)cc1 | 2.4 | -0.9% | 0 | 0.9 | 25 | 7% | 0.6%
Cc1ccccc1C(=O)NCC(c1ccco1)N1CCc2ccccc21 (configuration not stated) | x | x | -11 | 3.8 | -16 | x | 1.5%

Grouped by structure: the compounds so far with a cyano group.
SMILES | Menin MLL FP FL | ClpP mod | TRPV1 potentiator | TRPML1 agonist | TRPML1 inh | Sfp inh | PINK1 expr mod
COCCNC(=O)C1CCCN(Cc2ccc(C#N)cc2)CC1 (configuration not stated) | x | 0.9% | x | -0.3 | x | x | 1.2%
CC(OC(=O)/C=C/c1ccccc1)C(=O)Nc1cccc(C#N)c1 (configuration not stated) | x | 0.8% | 10 | -0.2 | 3 | x | 6.7%

From PubChem
